VDR inh: inhibitors of human vitamin D receptor; Potency, µM, without a hit: max response, negative = inhibition, usual class: inhibitors; VDR-SRC2-3 peptide fluorescence polarization, 2 h; P11473; hit rate 0.93% among 400,000; active = well fitted inhibition curve with a large enough effect; inconclusive = small, poorly fitted or top-dose-only effect, or another doubt; inactive = no such curve, though single readings can be large or run the other way; also: series mostly up to about 120 µM
Target sequence (P11473 whole entry, looked up): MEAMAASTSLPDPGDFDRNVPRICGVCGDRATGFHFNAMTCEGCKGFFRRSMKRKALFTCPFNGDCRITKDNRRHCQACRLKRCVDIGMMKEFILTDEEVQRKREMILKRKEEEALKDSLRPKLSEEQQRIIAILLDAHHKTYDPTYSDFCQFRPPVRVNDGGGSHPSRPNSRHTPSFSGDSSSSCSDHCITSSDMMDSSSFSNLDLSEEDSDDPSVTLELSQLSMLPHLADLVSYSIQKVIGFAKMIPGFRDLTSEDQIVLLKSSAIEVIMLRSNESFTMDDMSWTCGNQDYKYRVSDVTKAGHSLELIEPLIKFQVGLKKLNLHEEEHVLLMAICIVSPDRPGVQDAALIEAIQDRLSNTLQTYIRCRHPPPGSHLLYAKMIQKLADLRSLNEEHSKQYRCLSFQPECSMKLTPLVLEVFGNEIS
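Fluorescence polarization assay of small-molecule disruption of VDR binding to coregulator peptide SRC2-3. Compounds and controls pin-transferred, then read after 2 h incubation at ambient room temperature.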
The depositor's hits bear a star; ? = inconclusive; & = joins results of further samples; [ ] = another dose, or the depositor's remark. % is scaled to controls: 0 for no effect and ±100 for the full control effect; potency is read from the fitted curve at half-maximal effect.

Preview (5 entries):
Cc1ccc(-c2nnc(Cc3ccc(Cl)cc3)o2)cc1
  VDR inh: -8%

CCC(C)NC(=O)C1CCC(CNS(=O)(=O)c2ccccc2)CC1 (stereo not given)
  VDR inh: 13%

Cc1cc(C)cc(OCC(=O)N2CCCCCC2)c1
  VDR inh: -8%

Cn1c(OCc2cccnc2)nc2c1c(=O)n(Cc1ccc(F)cc1)c(=O)n2C
  VDR inh: -5%

Cc1ccc(C(=O)N2CCN(c3cc4c(cc3[N+](=O)[O-])n(C)c(=O)n4C)CC2)cc1
  VDR inh: 1%

Results, repeating the preview:
Cc1ccc(-c2nnc(Cc3ccc(Cl)cc3)o2)cc1
  VDR inh: -8%

CCC(C)NC(=O)C1CCC(CNS(=O)(=O)c2ccccc2)CC1 (stereo not given)
  VDR inh: 13%

Cc1cc(C)cc(OCC(=O)N2CCCCCC2)c1
  VDR inh: -8%

Cn1c(OCc2cccnc2)nc2c1c(=O)n(Cc1ccc(F)cc1)c(=O)n2C
  VDR inh: -5%

Cc1ccc(C(=O)N2CCN(c3cc4c(cc3[N+](=O)[O-])n(C)c(=O)n4C)CC2)cc1
  VDR inh: 1%

Cc1ccc(N2CCN(S(=O)(=O)N(C)C)CC2)cc1C
  VDR inh: 14%

CC(NCC(=O)Nc1ccccc1C(=O)NC1CC1)c1ccccc1Cl (stereo not given)
  VDR inh: -12%

O=C(CNC(=S)N(CCCN1CCOCC1)Cc1cccs1)NC1CCCCCCC1
  VDR inh: -7%

CC1CCC2(CC1)NC(=O)N(CC(=O)Nc1ccc3c(c1)OCCO3)C2=O (stereo not given)
  VDR inh: 2%

CCCCn1c(N)c(N(CC(C)C)C(=O)c2cc(S(=O)(=O)N3CCCCC3)ccc2C)c(=O)[nH]c1=O
  VDR inh: -17%

CC(=O)c1cnc2c(-c3cccc(Br)c3)cnn2c1C
  VDR inh: 3%

Cc1nc(N)ncc1C(=O)Nc1ccccc1
  VDR inh: -12%

COc1ccccc1C(=O)NC(CCSC)C(=O)N1CCC(Cc2ccccc2)CC1 (stereo not given)
  VDR inh: 0%

COc1ccc(C(c2nnnn2C2CCCC2)N2CCC(C)CC2)cc1 (stereo not given)
  VDR inh: -5%

CCOc1cccc2sc(N3CCN(C(=O)C(C)(C)C)CC3)nc12
  VDR inh: 11%

CCC1CCc2nc3sc(C(=O)Nc4cccc(F)c4)c(N)c3cc2C1 (stereo not given)
  VDR inh: -10%

O=C(Nc1ccccc1)c1cc(S(=O)(=O)N2CCOCC2)cs1
  VDR inh: 5%

CCc1ccc(NC(=S)Nc2ccc3cn[nH]c3c2)cc1
  VDR inh: -2%

CCCCN(C)C(=O)c1ccc2c(=O)n3nc(Nc4cc(C)ccc4C)sc3nc2c1
  VDR inh: 4%

COCCN(C(=O)CCc1ccc(OC)cc1)c1nnc(-c2ccncc2)s1
  VDR inh: -15%

CCOC(=O)C1=C(C)N=c2s/c(=C\c3ccc(OCC(=O)O)c(OC)c3)c(=O)n2C1c1ccc(OC)cc1 (stereo not given)
  VDR inh: ?

COc1ccc(C(=O)N2CCCC(c3nc(-c4ccc(C)o4)no3)C2)cc1OC (stereo not given)
  VDR inh: -15%

CC1CC(C)CN(S(=O)(=O)c2ccc(Oc3ccc([N+](=O)[O-])cc3)cc2)C1 (stereo not given)
  VDR inh: -12%

COc1cc(CN2CCCC(C(=O)c3ccc(C(C)(C)C)cc3)C2)cc(OC)c1O (stereo not given)
  VDR inh: 7%

CC(=O)c1ccc(N2CCN(C(=S)Nc3cc(C)ccc3C)CC2)cc1
  VDR inh: -13%

O=C(COC(=O)/C=C/c1cccc(F)c1)NC1CCCCCC1
  VDR inh: 7%

Cc1ccc(NC(=O)/C(Cl)=C/c2ccccc2)cc1C
  VDR inh: -16%

O=C(NCc1cccc(OC(F)(F)F)c1)c1cccc2c1C(=O)c1ccc(-c3ccc(F)cc3OCc3ccccc3)cc1S2(=O)=O
  VDR inh: -14%

CCNC(=O)N(CCOC)CC1CCCN(C2Cc3ccccc3C2)C1 (stereo not given)
  VDR inh: 11%

CCOC(=O)Cc1ccc(NC(=O)N(Cc2ccc(OC)cc2)C2CCN(C(C)=O)CC2)cc1
  VDR inh: -4%

Cc1nc2ccccc2c(=O)n1NC(=O)c1ccc([N+](=O)[O-])cc1
  VDR inh: -26%

CCOc1ccc(-c2cc(CCCC(=O)NCc3ccco3)no2)cc1
  VDR inh: -7%

COc1ccc(C2C(CC(=O)O)=C(O)C(=O)N2c2ccccc2)cc1 (stereo not given)
  VDR inh: -14%

Nc1cc(Cl)ccc1C(=O)OCC(=O)NCc1cccs1
  VDR inh: 2%

O=c1oc2ccc(Cl)cc2cc1-c1cn2c(n1)sc1ccccc12
  VDR inh: 9%

O=C(Cc1csc(NC(=O)c2ccccc2)n1)NO
  VDR inh: -10%

COc1cc(NC(=O)c2cccs2)c(C(=O)OCC(=O)c2cc(C)n(-c3ccccc3)c2C)cc1OC
  VDR inh: -2%

O=C(c1ccc(Cl)cc1)N1CCN(c2cccc3[nH]ccc23)CC1
  VDR inh: -19%

Cc1ccccc1-c1nnc(SCC(=O)N(C)c2c(N)n(Cc3ccccc3)c(=O)[nH]c2=O)n1C
  VDR inh: 10%

Cc1cccn2c(CNCCCOc3cccnc3)c(C(=O)N3CCOCC3)nc12
  VDR inh: 11%

COc1cccc(CNC(=O)Cn2nc(-c3ccc(Cl)cc3)ccc2=O)c1
  VDR inh: 7%&10%

O=C(COC(=O)Cc1ccccc1F)Nc1ccc2c(c1)OCO2
  VDR inh: -18%

CC(C)CC(=O)CC1(O)C(=O)Nc2ccccc21 (stereo not given)
  VDR inh: -28%

CCc1ccc(/C=N/NC(=O)c2cc(C3CC3)nc3ccccc23)s1
  VDR inh: 6%

CCCCN(CC)C(=S)Nc1ccc2nc3n(c(=O)c2c1)CCCCC3
  VDR inh: 10%

NC(=O)CSc1nnc(C2CC2)n1Cc1ccccc1
  VDR inh: 15%

Cc1ccccc1C(=O)NCc1ccc2c(c1)CCN2C(=O)c1ccccc1
  VDR inh: -2%

Cc1cc(C)n2c(SCc3ccc(C#N)cc3)nnc2n1
  VDR inh: -5%

CCCCc1ccc(NC(=O)Cn2cnc3c(oc4ccccc43)c2=O)cc1
  VDR inh: 14%

CC1CN(C(=O)N2CCC(C(=O)NCc3cccs3)CC2)c2cc(Cl)ccc2O1 (stereo not given)
  VDR inh: 3%

COc1cccc(CNC(=O)C2CCCN(S(=O)(=O)c3ccc4c(ccn4C)c3)C2)c1 (stereo not given)
  VDR inh: 15%

CCN(CC(=O)Nc1ccc(NC(C)=O)cc1)C(=O)CN1C(=O)NC(C)(c2ccc3ccccc3c2)C1=O (stereo not given)
  VDR inh: 33%[activator]

O=C1CCCN1c1ccc(S(=O)(=O)NCc2ccc(F)cc2)cc1
  VDR inh: 15%

COC(=O)CSC(=S)N1C(C)CCCC1C (stereo not given)
  VDR inh: ?

COc1cccc(/C=C2\SC(=S)N(CCCC(=O)Nc3ccc(C(=O)O)cc3)C2=O)c1
  VDR inh: -14%

O=C(c1cc(Cl)nc2ccccc12)N1CCN(S(=O)(=O)c2ccccc2[N+](=O)[O-])CC1
  VDR inh: 14%

CCCn1c(=O)c2sccc2n2c(CCCC(=O)Nc3ccc(Oc4ccccc4)cc3)nnc12
  VDR inh: -1%

CCOC(=O)C1CCCN(C(=O)c2cccc(S(=O)(=O)N(C)c3ccc(OC)cc3)c2)C1 (stereo not given)
  VDR inh: -14%

Cc1ccccc1OCC(=O)Nc1ccc2c(c1)C(=O)c1ccccc1C2=O
  VDR inh: -16%

O=[N+]([O-])c1ccc(SNc2ccccc2)c([N+](=O)[O-])c1
  VDR inh: -9%

COc1ccc(N2CC(NC(=O)NC(C)(C)C)CC2=O)cc1 (stereo not given)
  VDR inh: -5%

CN(C)/C(=N\S(=O)(=O)c1ccccc1)c1ccccc1
  VDR inh: -7%

CC(CC(=O)N1CCN(c2ccccc2)CC1)S(=O)(=O)c1ccc2c(c1)NC(=O)CS2 (stereo not given)
  VDR inh: 7%

COc1cccc(NC(=O)CSc2c(C)cnc3c2c(=O)n(C)c(=O)n3C)c1
  VDR inh: 9%

Cc1ccc(C2=N/C(=C\c3ccc(F)cc3)C(=O)N2)cc1
  VDR inh: 9%

O=C(Nc1ncnc2c1CCC2)C12CC3CC(CC(C3)C1)C2
  VDR inh: 8%

CC(=O)Oc1ccc(C(=O)NCc2ccc3c(c2)OCO3)cc1
  VDR inh: -4%

CC(=O)Nc1ccc(NS(=O)(=O)c2cn(C)c(=O)n(C)c2=O)cc1
  VDR inh: -18%

CCC(CC)C(=O)Nc1ccc(C(=O)OCc2cc(=O)n3nc(C4CC4)sc3n2)cc1
  VDR inh: 8%

CC(C)(C)C1CCc2onc(C(=O)Nc3cnn(Cc4ccc(F)cc4)c3)c2C1 (stereo not given)
  VDR inh: -10%

O=C(/C=C/c1ccc(-c2ccccc2[N+](=O)[O-])o1)c1ccc(F)cc1
  VDR inh: -23%

CSC1=NCCCN1C(=O)c1c(-c2ccccc2Cl)noc1C
  VDR inh: 9%

CCCNS(=O)(=O)c1ccc(CCC(=O)N2CCN(c3ccc(OC)cc3)CC2)cc1
  VDR inh: 1%

COc1cccc(CNC(=O)CCc2nnc(C3CCCCC3)o2)c1
  VDR inh: -1%

CC1=C(C(N)=O)C(c2ccc(Cl)cc2)n2nc(CCCO)nc2N1 (stereo not given)
  VDR inh: 13%

Cc1cccc(-c2nc(C#N)c(N3CCCCCC3)o2)c1
  VDR inh: -12%

CN(CC1CCOCC1)C(=O)CC1C(=O)NCCN1Cc1cccc(Oc2ccccc2)c1 (stereo not given)
  VDR inh: -6%

Cc1ccc(S(=O)(=O)N2CCC(O)(c3cccnc3)CC2)cc1
  VDR inh: -4%

O=C(CN(c1cccc(C(F)(F)F)c1)S(=O)(=O)c1ccccc1)Nc1cccc(Cl)c1
  VDR inh: 0%

COc1ccc(CNC(=O)CSc2c3c(nc4ccc(Cl)cc24)CCCC3)cc1
  VDR inh: 4%

CC(Cc1ccccc1)NC(=O)C1(c2ccccc2)CCOCC1 (stereo not given)
  VDR inh: -5%

COc1ccc(CCNC(=O)CSc2ccc3nnc(CCNC(=O)c4ccc(C)cc4)n3n2)cc1OC
  VDR inh: -2%

O=C(Cn1ncc2ccsc2c1=O)N1CCN(c2ccc(Cl)cc2)CC1
  VDR inh: -8%

CC1(C)CC(=O)N(c2ccc(Cl)cc2Cl)C(=O)C1
  VDR inh: -10%

CC(=O)Nc1cccc(-n2c(=O)n(Cc3ccccc3)c(=O)c3[nH]cnc32)c1
  VDR inh: -2%

COc1ccc(CN(C(=O)c2ccc(OCC(C)C)cc2)C2CCS(=O)(=O)C2)cc1 (stereo not given)
  VDR inh: 14%

COc1ccc(NC(=O)c2ccc(NC(=O)CN(C)CC(=O)Nc3c(C)cccc3C)cc2)cc1
  VDR inh: 12%

COc1ccccc1N1CCN(C(=O)c2cccc3c(=O)c(C)c(-c4ccccc4)oc23)CC1
  VDR inh: -4%

CCOc1cccc(C(=O)Nc2ccc3ccccc3c2)c1
  VDR inh: 7%

CCN(CC)c1ccc2c(Cl)c(Br)c(=O)oc2c1
  VDR inh: -12%

Cc1ncn(-c2ccccc2)c1-c1ccccc1
  VDR inh: -11%

CCc1ccc(C(=O)N2CCCC2)s1
  VDR inh: -2%

COc1ccc(CC(=O)Nc2c3c(nn2-c2cccc(C)c2C)CS(=O)(=O)C3)cc1
  VDR inh: 1%

O=C1CC[C@@H](C(=O)N2CSC[C@H]2C(=O)O)N1
  VDR inh: -3%&0%

COC(=O)c1ccc(COc2cccc3c2CCN(Cc2cccc(C)c2)C3=O)o1
  VDR inh: 14%

Cc1ccc(/C=N\NC(=O)c2cc([N+](=O)[O-])cc([N+](=O)[O-])c2)o1
  VDR inh: -4%

Cc1csc(NC(C)c2nc3cc(Cl)c(N4CCCCC4)cc3n2CCOCCO)n1 (stereo not given)
  VDR inh: -16%

CC(C)OCCCNC(=O)Cn1c(-c2cccs2)cc2cc(F)ccc21
  VDR inh: -2%

O=[N+]([O-])c1ccc(N/N=C/c2cn(Cc3ccc(F)cc3)c3ccccc23)nc1
  VDR inh: -18%

Cc1ccccc1OCC(=O)Nc1nnc(C2CCCCC2)s1
  VDR inh: -17%

COc1ccc(NS(=O)(=O)c2cccc(C(=O)N(C)Cc3cccs3)c2)cc1
  VDR inh: -1%

COc1ccc(OC)c(/C=C/C(=O)OCC(=O)NCc2ccccc2)c1
  VDR inh: -10%

C=CCNC(=S)Nc1cccc(NC(=S)NCC=C)c1
  VDR inh: -4%

COc1ccc(-n2cnnc2SCC(=O)Nc2ccc(C(N)=O)cc2)cc1
  VDR inh: 13%

O=c1[nH][nH]c(-c2ccccc2O)c1C(C[N+](=O)[O-])c1ccc(Br)cc1 (stereo not given)
  VDR inh: ?

COc1ccc(/C=C(/C#N)c2cccnc2)cc1OC
  VDR inh: -6%

Cc1nc2c(-c3ccc(F)cc3)c(C)nn2c(C)c1CCC(=O)NCc1ccco1
  VDR inh: ?

Cc1ccc2cc(C(c3nnnn3C3CCCC3)N3CCN(c4ccccc4)CC3)c(=O)[nH]c2c1 (stereo not given)
  VDR inh: -4%

O=S(=O)(Nc1ccon1)c1ccc(Br)cc1
  VDR inh: -12%

CCOc1ccccc1NC(=O)Cn1c(=O)n(-c2cccc(C)c2)c(=O)c2c1c1cc(OC)ccc1n2C
  VDR inh: 14%

C/C(=N\O)c1ccco1
  VDR inh: -11%

COc1cccc(C#Cc2c(CO)[nH]c3ccccc23)c1
  VDR inh: -14%

O=C(NCC1CCCCC1)c1ccc(F)c(S(=O)(=O)N2CCOCC2)c1
  VDR inh: 8%

O=C1CCC[C@@H]2CC(N3CCCCC3)C[C@@H]3CCN1[C@H]23 (stereo not given in full)
  VDR inh: -25%&2%

COc1ccccc1N1CCN(C(c2ccccn2)c2nnnn2C2CCCCC2)CC1 (stereo not given)
  VDR inh: -10%

C[C@@]12C(=O)N(Cc3ccc(-c4ccccc4)cc3)CC(=O)N1[C@H](/C=C/c1ccccc1)[C@@H]1C(=O)N(c3ccccc3)C(=O)[C@@H]12
  VDR inh: -19%

CCn1c(COc2ccccc2)nc2ccccc21
  VDR inh: 7%

CCc1nn2c(=O)c(S(=O)(=O)Nc3cccc(F)c3)c(C)nc2s1
  VDR inh: -2%&-12%

Screening results from PubChem.

These rows are one share of the data (hit frequency here may not be typical).
